Screening results: PubChem BioAssay, Fisher Drug Discovery Resource Center
NPYLR7 agonist = agonists of mosquito NPYLR7 receptor, primary screen, cell-based, Aedes aegypti, calcium fluorescence, mosquito biting behavior. Aedes aegypti neuropeptide Y-like receptor 7 (NPYLR7). HEK293T NPYLR7/Galpha15, GCaMP6s calcium fluorescence. activation, % at 10 µM. 270,000 tested, 0.15% active; in the data active means activation above about 40%;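 further: 0% = vehicle and 100% = reference agonist at the receptor; some compounds past the cut are filed as inactive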
NPYLR7 agonist max-min = further read-out of NPYLR7 agonist, marked with its call; activation, %; measured here: Max-Min RFU normalised activation; some inactives read as strong as hits;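 span of the calcium signal over five minutes; 0% = vehicle and 100% = native peptide agonist; compound fluorescence can raise it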
Numbers without * were called inactive; & = joins results of further samples.

1) COc1ccc(OCc2cc(C(=O)N3CC=CC3)n[nH]2)c(Cl)c1
2) Cc1ncsc1CN(C)Cc1ccc(NS(C)(=O)=O)cc1
3) CC(C)n1cc(C(=O)N2CCN(C(=O)Cc3ccccc3)CC2)c2nn(-c3ccccc3)c(=O)c-2c1
4) Cc1cccc(C(=O)NC(=NCCCc2ccccc2)OC(C)C)c1
5) CC(=O)c1cc2ncc(C(=O)N3CCC4(CC3)OCCO4)cc2[nH]1

Screen / compound no.	1	2	3	4	5
NPYLR7 agonist	-3	9	-6	-4	-1
NPYLR7 agonist max-min	-5	6	-7	-3	-4

6) FC(F)(F)c1cccc(Cc2noc(CN3CCC(OCc4ccccn4)CC3)n2)c1
7) CCN=c1scc(-c2ccc(C)cc2)n1N=Cc1ccc(F)cc1F
8) C(=N/Nc1nc(N2CCOCC2)nc(N2CCOCC2)n1)/c1cccnc1
9) COc1cc(F)ccc1CN1CC[C@@H](N2CCN(CCc3ccccc3)CC2)[C@H](O)C1
10) Cc1cc(CN2C(=O)NC(Cc3ccc(F)cc3)(C3CCNCC3)C2=O)on1 (stereo unspecified)

Screen / compound no.	6	7	8	9	10
NPYLR7 agonist	5	-5	0	0	-2
NPYLR7 agonist max-min	2	-6	-9	-4	-2

11) Cn1ccn2ncc(C(=O)NCCc3c[nH]c4ccccc34)c12
12) Cc1ccc(S(=O)(=O)Nc2ccc(N3CCNC(=O)C3)c(Cl)c2)s1
13) CCc1ccc(CN2CC[C@@H](c3ccc(F)cc3)[C@H](O)C2)nc1
14) O=C(NC1CC1)c1csc(COc2ccc3c(c2)OCO3)n1
15) Cc1ccn2c(=O)nc(SCc3cccc(Cl)c3)nc2c1

Screen / compound no.	11	12	13	14	15
NPYLR7 agonist	15	-5	12	8	2
NPYLR7 agonist max-min	8	-5	9	12	6

16) O=C(Cn1nnc(-c2ccccc2Cl)n1)Nc1ccc(I)cc1
17) CCN1C(=O)C2(SC(C)(C)CN2C(=O)Nc2cccc(Cl)c2)c2cc(F)ccc21 (stereo unspecified)
18) O=C(CSc1nc(=O)n(CCO)c2c1CCCC2)NCc1ccccc1
19) CCCc1noc2c1/C(=N/O)CC(CC(C)SCC)C2 (stereo unspecified)
20) COc1ccc(OC)c(NC(=O)C2(C)CCN2C(=O)Cc2ccc(Cl)cc2Cl)c1 (stereo unspecified)

Screen / compound no.	16	17	18	19	20
NPYLR7 agonist	-1	7	-5	-2	13
NPYLR7 agonist max-min	-6	4	-11	52	12

Some values from above:
NPYLR7 agonist max-min with no. 18 reads -11
NPYLR7 agonist with no. 17 reads 7
NPYLR7 agonist max-min with no. 19 reads 52

(listing goes on)
21) O=C(c1ccccc1SC(F)F)N1CCN(c2ncnc3c2nnn3Cc2ccccc2)CC1
22) COCCSCC(=O)Nc1ccc(Br)cc1Br
23) OCCn1ccnc1-c1ccc(-c2ccccc2Cl)o1
24) COc1cccc(C=Nc2ccc(S(=O)(=O)Nc3ccc(F)cc3)cc2)c1O
25) O=C(c1ccccc1Cl)N1CCN(C(C(=O)N2CCCC2)C2CCCC2)CC1 (stereo unspecified)

Screen / compound no.	21	22	23	24	25
NPYLR7 agonist	-3	-4	10	-2	-9
NPYLR7 agonist max-min	-5	-3	-2	-5	-6

Among those listed so far, 4 contain an aryl methoxy group.
1) COc1ccc(OCc2cc(C(=O)N3CC=CC3)n[nH]2)c(Cl)c1
9) COc1cc(F)ccc1CN1CC[C@@H](N2CCN(CCc3ccccc3)CC2)[C@H](O)C1
20) COc1ccc(OC)c(NC(=O)C2(C)CCN2C(=O)Cc2ccc(Cl)cc2Cl)c1 (stereo unspecified)
24) COc1cccc(C=Nc2ccc(S(=O)(=O)Nc3ccc(F)cc3)cc2)c1O

Screen / compound no.	1	9	20	24
NPYLR7 agonist	-3	0	13	-2
NPYLR7 agonist max-min	-5	-4	12	-5

(next part)
26) COc1ccccc1CN1CCNC(=O)C1CC(=O)NCCc1ccncc1 (stereo unspecified)
27) CN(C)c1ccc(NC(=O)c2ccccc2Cl)cc1CN(Cc1ccc(F)cc1)S(C)(=O)=O
28) CCO[C@H]1[C@H](NC(=O)c2cnn(C(C)C)c2)c2ccccc2C12CCNCC2
29) COc1cc2c(cc1CNC(=O)c1cc3n(n1)CCCN(C)C3)CCC2
30) CCOC(=O)C1CCN(c2nc(Cc3cccc(OC)c3)ns2)CC1

Screen / compound no.	26	27	28	29	30
NPYLR7 agonist	5	-4	9	10	-4
NPYLR7 agonist max-min	1	0	6	5	-4

31) CCc1cn[nH]c1C1CCCN(C(=O)c2nnc3nc(C)ccn23)C1 (stereo unspecified)
32) CCOC(=O)CN(CC1CC1)C(=O)c1cc2cc(Cl)ccc2o1
33) O=C(Nc1cccc(F)c1)c1nn(-c2ccccc2)c(=O)n(Cc2cccc(Cl)c2)c1=O
34) COc1ccc(OC)c(CC(=O)N2CCn3c(C(N)=O)cnc3C2)c1
35) CCN(CC)C(=O)Cn1cc(C(=O)N(C)C(C)c2cccs2)nn1 (stereo unspecified)

Screen / compound no.	31	32	33	34	35
NPYLR7 agonist	7	6	2	-3	3
NPYLR7 agonist max-min	5	4	16	-5	-1

Rewritten field by field: part of the list above
[16] O=C(Cn1nnc(-c2ccccc2Cl)n1)Nc1ccc(I)cc1
  NPYLR7 agonist: -1; NPYLR7 agonist max-min: -6
[17] CCN1C(=O)C2(SC(C)(C)CN2C(=O)Nc2cccc(Cl)c2)c2cc(F)ccc21 (stereo unspecified)
  NPYLR7 agonist: 7; NPYLR7 agonist max-min: 4
[18] O=C(CSc1nc(=O)n(CCO)c2c1CCCC2)NCc1ccccc1
  NPYLR7 agonist: -5; NPYLR7 agonist max-min: -11

The list continues.
36) COC(=O)/C=C1/C(=O)C2=C3N(CCCC2)CCCN31
37) Nc1ccccc1-c1n[nH]c(-c2ccccn2)n1
38) COC(=O)C1=C(C)NC(=O)NC1
39) CC1CC(C)CN(C(=O)C(C)S(=O)(=O)c2nccs2)C1 (stereo unspecified)
40) COCCCN(Cc1c(-c2ccc(F)cc2)noc1N1CCN(C)CC1)C(=O)Nc1cccc(Cl)c1

Screen / compound no.	36	37	38	39	40
NPYLR7 agonist	6	0	6	4	11
NPYLR7 agonist max-min	1	0	12	0	10

41) COc1cccc2sc(N(CCCn3ccnc3)C(=O)c3cccs3)nc12
42) CC(=O)O[C@@H]1CC2C(C)(C)C(=O)CC[C@]2(C)C2CC[C@@]3(C)[C@H](c4ccoc4)OC(=O)C4OC43[C@@]21C (stereo partly specified)
43) COCCCn1c(SCC#N)nc2sc3c(c2c1=O)CCCS3
44) Cc1csc(Sc2ccc(S(=O)(=O)C(F)(F)F)cc2[N+](=O)[O-])n1
45) CCOc1ccc(CC(=O)Nc2c(C)nc3sc(C)c(C)n3c2=O)cc1

Screen / compound no.	41	42	43	44	45
NPYLR7 agonist	-7	5	4	1	20
NPYLR7 agonist max-min	-12	-4	2	6	14

46) CCC(C)NC(=O)C(NC(=O)c1cccc(C)c1)C1CCN(S(=O)(=O)c2ccc(OC)cc2)CC1 (stereo unspecified)
47) CSc1nnc(C(C)NC(=O)OC(C)(C)C)o1 (stereo unspecified)
48) Cc1nnc(C)c2c(C)[nH]c(C)c12
49) COc1ccc(C2CN(C(=O)c3ccc(C)cc3)CC2C(=O)NCc2ccccc2)cc1 (stereo unspecified)
50) Cc1ccc(CC2(NC(=O)Cc3nn[nH]n3)CC2)cc1

Screen / compound no.	46	47	48	49	50
NPYLR7 agonist	12	10	4	9	2
NPYLR7 agonist max-min	16	6	12	6	-1

51) O=C1C=C(Nc2cccc(Cl)c2)C(=O)N1CCO
52) CCc1c(C)nn(CC(=O)NCc2nn(C)c3ccc(C)cc23)c1C
53) Cc1ccccc1-c1nc(SCCN2CCCC2)c2c(=O)n(C)c(=O)n(C)c2n1
54) Cc1ccc(S(=O)(=O)Nc2ccc(Sc3nccn3C)cc2C)s1
55) C/C(=C\c1ccco1)CN1C[C@H](N(C)C)C[C@H]1CO

Screen / compound no.	51	52	53	54	55
NPYLR7 agonist	2	2	-10	-1	12
NPYLR7 agonist max-min	5	-3	-14	-3	12

56) O=c1nc2ccccn2c2c(F)c(F)c(F)cc12
57) COc1ccc2nc(-c3ccc(NS(=O)(=O)c4cccs4)cc3)cn2n1
58) CC(C)P(=O)(c1c(F)c(F)nc(F)c1F)C(C)C
59) CCOC(=O)c1nc2cc(Cl)c(Cl)cc2nc1N1CCCN(C(=O)Cc2ccc(F)cc2)CC1
60) CCOC(=O)c1nc2ccccc2nc1N1CCN(C(=O)C2CCN(C(C)=O)CC2)CC1

Screen / compound no.	56	57	58	59	60
NPYLR7 agonist	0	-8	-15	5	11
NPYLR7 agonist max-min	1	-12	-19	4	3

61) c1nnc2c3c4c(sc3n3cnnc3n12)CCCCC4
62) COC(=O)c1ccc(CSc2nc3c([nH]c4ccccc43)c(=O)n2C)o1
63) Cc1c(C(=O)N2CCN(c3ccccc3Cl)CC2)nnn1-c1nc2c(s1)CCCC2
64) Cc1c(Cl)c(C(F)(F)F)nn1CC(=O)Nc1ccccc1C(F)(F)F
65) c1ccc(Cn2nnnc2CN2CCNCC2)cc1

Screen / compound no.	61	62	63	64	65
NPYLR7 agonist	5	1	2	0	-23&3
NPYLR7 agonist max-min	-1	12	0	-1	-24&-1

66) CCOC(=O)c1c(C)nc(C)c(C(=O)OCC)c1-c1ccc(OC)cc1
67) CCOC(=O)c1nn(-c2ccc(C(F)(F)F)cc2)c(=O)c2c(NC(C)=O)scc12
68) Cc1ccccc1CC1(CO)CCCN(Cc2ccccc2Cl)C1 (stereo unspecified)
69) COc1ccc(S(=O)(=O)NCC2CCCO2)cc1N1CCN(S(=O)(=O)c2c(C)c(C)c(C)c(C)c2C)CC1 (stereo unspecified)
70) CCC1CCCCN1Cc1nc2c(c(=O)n(C)c(=O)n2C)n1Cc1ccc(C)cc1 (stereo unspecified)

Screen / compound no.	66	67	68	69	70
NPYLR7 agonist	-5	6	4	3	2
NPYLR7 agonist max-min	-4	7	1	-2	19

71) CCCc1cc(C(=O)N(CCOC)CC2CCN(Cc3ccccc3OC)CC2)n(C)n1
72) Cc1ccnc(SCC(=O)C(C)(C)C)n1
73) C=CCOC(=O)C1=C(C)NC2=C(C(=O)CCC2)C1c1ccc(OCC)c(OC)c1 (stereo unspecified)
74) CCN(CCN1CCOCC1)C(=O)c1nc2ccccc2[nH]1
75) O=C(c1ccco1)N1CCC(c2nc(-c3ccc4c(c3)OCO4)no2)CC1

Screen / compound no.	71	72	73	74	75
NPYLR7 agonist	4	0	-4	11	4
NPYLR7 agonist max-min	1	-2	-10	7	-2

76) C=CCNC(=S)N1CCc2cc(OC)c(OC)cc2C1CNS(=O)(=O)c1ccc(Cl)cc1 (stereo unspecified)
77) COc1ccc(S(=O)(=O)N2CCC(NC(=O)COc3cc(C)cc(C)c3)CC2)cc1
78) Cc1csc(Cc2n[nH]c(=O)n2CCc2ccccc2F)n1
79) Cc1ccc(C=Nc2sc3c(c2C#N)CCCCC3)o1
80) O=C(CN(CC1CCCO1)C(=O)C1C[C@H]1c1ccccc1)N(Cc1ccc2c(c1)OCO2)Cc1ccco1 (stereo partly specified)

Screen / compound no.	76	77	78	79	80
NPYLR7 agonist	-1	4	15	5	2
NPYLR7 agonist max-min	2	-3	12	2	11

81) CC(C)(C)c1ccc(-c2nn3c(N)cc(=O)nc3s2)cc1
82) CCN(CC)C(=O)c1cc(NC(=O)c2ccc(C(C)(C)C)cc2)ccc1N1CCCC1
83) Cc1ccc(N2C(=O)CC(C3CCCC=C3N3CCOCC3)C2=O)c(C)c1 (stereo unspecified)
84) Clc1ccccc1CN1CCN(N=Cc2ccncc2)CC1
85) COCCCN(CC(=O)N1CCc2sccc2C1c1ccc(OC)cc1)S(=O)(=O)c1ccc(Br)cc1 (stereo unspecified)

Screen / compound no.	81	82	83	84	85
NPYLR7 agonist	-3	-6	1	-8	-2
NPYLR7 agonist max-min	-3	-2	1	-15	4

86) Cc1cc(C)cc(N=C2NC(=O)/C(=C\c3cc(C)n(-c4ccc(Br)cc4)c3C)S2)c1
87) Cc1ccc2nc(-c3ccc(Cl)cc3)c(Nc3c(C)cccc3C)n2c1
88) COCCN(CC(=O)N(Cc1ccco1)Cc1cccn1C)C(=O)Nc1ccc(C(C)C)cc1
89) CCN(CC)c1ncccc1CNCc1cccc(C(F)(F)F)c1
90) COc1ccccc1C1(CNC(=O)C2CCN(S(C)(=O)=O)CC2)CCOCC1

Screen / compound no.	86	87	88	89	90
NPYLR7 agonist	-2	0	15	13	-6
NPYLR7 agonist max-min	-4	3	17	5	-7

91) CCc1cc(N2CCOCC2)nc(SCc2ccc(C(=O)NCc3ccc4c(c3)OCO4)o2)n1
92) OCc1ccc(-c2nccn2CCCCc2ccccn2)o1
93) COc1ccc(Cl)cc1NC(=O)COc1cc(C)on1
94) COc1ccc(Br)cc1C1C(C#N)C(=N)SC(=N)C1C#N (stereo unspecified)
95) O=C1NCC(=O)N2CCN(C(=O)c3nc4ccccc4s3)CC12 (stereo unspecified)
96) CC(C)c1ccc(NC(=O)Cn2cnc3c2c(=O)n(C)c(=O)n3C)cc1
97) CN(Cc1ccc(O)cc1)CC1CCN(CCc2ccc(Cl)cc2)CC1
98) O=C(c1ccc(F)cc1)N1CCCC(OCc2ccccc2Cl)C1 (stereo unspecified)

Screen / compound no.	91	92	93	94	95	96	97	98
NPYLR7 agonist	-6	-3	5	4	10	2	10	-12
NPYLR7 agonist max-min	-5	-5	1	3	7	3	1	-5

Part of the list above, with two lines to a compound.
Each structure is followed by: NPYLR7 agonist	NPYLR7 agonist max-min
95: O=C1NCC(=O)N2CCN(C(=O)c3nc4ccccc4s3)CC12 (stereo unspecified)
  10	7
96: CC(C)c1ccc(NC(=O)Cn2cnc3c2c(=O)n(C)c(=O)n3C)cc1
  2	3

A portion of the library; the hit share may differ from the screen's.
